YopH PTP inh = YopH (Yersinia) phosphatase inhibition | fluorescence Ex485/Em525 | inhibition, %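 (about 10 µM by stock and volumes)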 | hit rate 0.16% among 140,000;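 active = inhibition of 50% or more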;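 note: controls were vehicle for no effect and minimum signal wells for full effect; inactives centre near -20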
Mtb betalactam = beta-lactam sensitization of Mtb H37Rv. M. tuberculosis H37Rv growth with meropenem, percent inhibition; hits of this screen are not shown here. inhibition, % at 25 µM. hit rate 0.27% among 330,000;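 active = about 74% or more and at least 40 points above the plate without the antibiotic, then above 30% in a dose series; inconclusive = first-round hits that could not be retested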;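 note: growth measured after seven days incubation then overnight dye step; 0% = bacteria only wells and 100% = bacteria with antibiotic; twin plates without the antibiotic show which effects depend on it; some results filed as inactive read as strong as hits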
Mtb growth = M. tuberculosis H37Rv growth inhibitors, H37Rv strain (AID 1626) | M. tuberculosis H37Rv growth inhibition; higher % means a stronger effect | inhibition, % at 10 µM; hits with a dose series show IC50 in µM | hit rate 0.95% among 220,000;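 active = confirmed in a dose series; inconclusive = inhibition above 80% but not taken into the dose series; inactive = below 80% or under 30% at every dose of the series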;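 note: bacteria incubated seven days before Alamar blue readout; 0% = bacteria only wells and 100% = bacteria with antibiotic wells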
Arbovirus inh = arbovirus infection inhibition; inhibition, % at 10 µM; hit rate 0.37% among 200,000; arbovirus infection cell-based antiviral screen;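 active = inhibition from about 30%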;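 note: bluetongue infection of BSR cells; cell survival read as ATP light after 72 h; 0% = infected wells without compound and 100% = uninfected wells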
RecA intein inh = blocks M. tuberculosis RecA intein splicing; AID 2221; P9WHJ3; cell-free RecA intein splicing, fluorescence; hit rate 0.75% among 290,000; inhibition, %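 (about 9 µM by stock and volumes)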; in the data active = inhibition above about 30%; inconclusive = no clear call, values can overlap the other calls;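 note: 0% = vehicle wells and 100% = reference inhibitor control wells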
Target sequence (P9WHJ3 whole entry, looked up): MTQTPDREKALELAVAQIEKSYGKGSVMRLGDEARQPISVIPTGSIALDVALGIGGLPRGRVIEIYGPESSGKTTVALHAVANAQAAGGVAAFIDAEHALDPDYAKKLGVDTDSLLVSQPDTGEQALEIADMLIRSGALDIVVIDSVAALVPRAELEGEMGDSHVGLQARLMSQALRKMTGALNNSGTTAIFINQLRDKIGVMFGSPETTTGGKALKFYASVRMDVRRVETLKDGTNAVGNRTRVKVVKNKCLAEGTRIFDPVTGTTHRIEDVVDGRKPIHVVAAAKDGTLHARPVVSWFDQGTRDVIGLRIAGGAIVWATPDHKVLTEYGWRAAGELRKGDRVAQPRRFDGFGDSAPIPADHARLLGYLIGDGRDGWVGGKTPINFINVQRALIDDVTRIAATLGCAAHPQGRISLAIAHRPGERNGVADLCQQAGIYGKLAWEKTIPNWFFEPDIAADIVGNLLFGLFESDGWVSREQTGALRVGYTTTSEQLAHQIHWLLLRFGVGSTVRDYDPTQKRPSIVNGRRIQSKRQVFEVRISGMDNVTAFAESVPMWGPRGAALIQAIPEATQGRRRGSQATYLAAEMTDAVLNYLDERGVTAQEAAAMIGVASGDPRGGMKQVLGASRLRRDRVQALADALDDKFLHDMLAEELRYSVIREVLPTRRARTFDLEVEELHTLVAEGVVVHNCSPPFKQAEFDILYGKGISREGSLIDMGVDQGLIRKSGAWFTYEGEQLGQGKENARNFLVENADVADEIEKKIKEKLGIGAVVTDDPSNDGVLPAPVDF
Starred values were filed as active, the others as inactive; ? = inconclusive; . = not tested or not shown.

SMILES	YopH PTP inh	Mtb betalactam	Mtb growth	Arbovirus inh	RecA intein inh
COc1ccc(N(CN2C(=O)C3CC=CCC3C2=O)C(=O)c2ccco2)cc1 (stereo unspecified)	-24	-4	-7%	-2	-1.6
COc1cc(OC)c2ccc(=O)oc2c1C(CCN1CCN(c2ccccc2)CC1)c1ccc2c(c1)OCO2 (stereo unspecified)	.	4	5%	.	5.1
CC1CC(C)CN(C(=O)COC(=O)CCc2nc3ccccc3c(=O)[nH]2)C1 (stereo unspecified)	-27	-6	0%	-3	-1.7
Cc1ccc(CNC(=O)CCC2CCCN(Cc3cccc4c3OCO4)C2)o1 (stereo unspecified)	.	-1	-6%	.	-0.2
CC1CCN(c2oc(Cc3cccc4ccccc34)nc2C#N)CC1	-32	3	5%	-4	-0.5
COc1ccccc1Cn1nnc2c(=O)[nH]c(C3CCN(C(=O)c4ccc(F)cc4)CC3)nc21	-13	-12	3%	2	0.0
NNC(=O)c1ccc(S(=O)(=O)N2CCc3ccccc32)cc1	.	5	.	.	-0.6
Cc1cc(OCC(=O)NC2CC2)c2c(C)c(C)c(=O)oc2c1	.	2	.	.	-0.4
N#C/C(=C(/O)COc1ccccc1)c1nc2ccccc2s1	.	13	5%	12	1.7
Cc1ccc(N=Nc2ccc3ccccc3c2O)cc1	.	13	.	.	1.0
Clc1cccc(Cl)c1COc1ccncc1	-37	-7	-2%	8	-0.4
Cc1cccc(CCNS(=O)(=O)c2ccc3c(c2)NC(=O)CS3)c1	.	3	.	.	0.6
COCCN(CCOC)C(=O)COC(=O)c1cc([N+](=O)[O-])ccc1Cl	.	42	-6%	.	-7.4
COc1ccc(N(C(=O)c2snc(C(N)=O)c2N)C(C(=O)NC2CCCCC2)c2ccc(F)cc2)c(OC)c1 (stereo unspecified)	.	-2	.	.	-5.0
Cc1cccc(Nc2nnc(-c3ccc(C(=O)N4C[C@H]5C[C@H](C4)c4cccc(=O)n4C5)cc3)c3ccccc23)c1	12	-7	5%	-33	6.7
COc1ccc(CNC(=O)c2ccc(S(=O)(=O)N3CCCC3)cc2)cc1OC	-19	3	1%	-6	0.7
O=C(CCNC(=O)c1ccccc1Cl)NCC(c1ccc(F)cc1)N1CCOCC1 (stereo unspecified)	.	-14	.	.	1.0
COc1ccc(C(C(=O)NC2CCCCC2)N(C(=O)c2sc(C)nc2C)c2ccccc2)cc1 (stereo unspecified)	-5	1	1%	6	0.6
Cc1ccc(-c2cc(C(F)F)nc(NCc3cccs3)n2)cc1	-23	-3	-2%	-7	-1.1
Cc1ccc2c(n1)CC(C)(C)CC2=O	2	-2	0%	5	0.3
O=S(=O)(NCC(Nc1ccccc1)c1ccccc1)c1ccc(Cl)cc1 (stereo unspecified)	-18	2	0%	-4	3.8
CC(C)C(=O)Nc1ccc(NC(=S)NC(=O)c2ccccc2F)cc1	.	?	.	.	-1.3
Cc1cc(=O)[nH]c2ccc(S(=O)(=O)Nc3ccccc3)cc12	.	-8	.	.	-0.1
CC(C)C(=O)Nc1ccc(C(=O)N/N=C/c2cc(Br)cc(Br)c2O)cc1	.	2	-1%	-34	-1.4

In the list so far, these contain a furan ring, fused or not.
SMILES	YopH PTP inh	Mtb betalactam	Mtb growth	Arbovirus inh	RecA intein inh
COc1ccc(N(CN2C(=O)C3CC=CCC3C2=O)C(=O)c2ccco2)cc1 (stereo unspecified)	-24	-4	-7%	-2	-1.6
Cc1ccc(CNC(=O)CCC2CCCN(Cc3cccc4c3OCO4)C2)o1 (stereo unspecified)	.	-1	-6%	.	-0.2

(continued)
SMILES	YopH PTP inh	Mtb betalactam	Mtb growth	Arbovirus inh	RecA intein inh
CCN1CCN(c2nc(-c3ccccc3)c3ccccc3n2)CC1	.	-1	.	.	-148
O=C(NCc1ccc2c(c1)OCO2)Nc1cccc(Cl)c1	.	0	.	.	3.7
FC(F)Oc1ccc(NC(=S)NCc2cccnc2)cc1	.	-5	2%	7	-3.5
Cc1cc(C(=O)COC(=O)c2csc3c2CCCC3)c(C)n1C	-53	?	-4%	2	.
CC(C)NC(=O)CSc1nnc(C2CC2)n1-c1ccccc1	-4	-6	2%	6	1.2
O=C(Cn1nnc(-c2cccc(C(F)(F)F)c2)n1)N1CCCCCC1	-18	2	.	-6	3.1
C[C@H](N)c1nnc(SCC(=O)c2ccc(Cl)cc2)o1	13	-1	-2%	-3	-0.4
COc1ccc(S(=O)(=O)CCC(=O)N2CCN(c3ccccc3F)CC2)cc1	.	4	5%	3	0.3
NC(=O)N/N=C/c1cc(Br)ccc1OC(=O)c1ccccc1	-22	3	0%	-3	0.9
COc1ccc(CCC(=O)Nc2ccc(-c3noc(-c4ccc(OC)c(OC)c4)n3)cc2)cc1	-19	12	-9%	5	0.6
CCc1ccc(OC(C)c2nnc(SCC(=O)Nc3ncccc3C)n2C)cc1 (stereo unspecified)	-14	4	0%	-9	-1.6
O=C(CCCn1c(SCC(=O)c2ccc(Cl)cc2)nc2ccccc2c1=O)NCc1ccco1	-40	-12	0%	-14	-4.1
COc1ccc(CNC2c3ccccc3-c3ccccc32)cc1OC	.	3	.	.	-2.2
Cc1ccc(OCCCC(=O)N(C)CC(=O)Nc2ccccc2Br)cc1	.	-10	.	.	1.2
CC1CCc2[nH]c3ccc(C(=O)N(C)CC(=O)Nc4ccccc4C(F)(F)F)cc3c2C1 (stereo unspecified)	.	8	.	.	-4.0
CCOc1cc(/C=C2/C(=O)N(c3ccccc3)N=C2C)ccc1OC(=O)c1cccs1	-33	67	12%	2	-11
CCC(c1nnnn1C1CCCC1)N(Cc1cccs1)Cc1cc2cccc(C)c2[nH]c1=O (stereo unspecified)	-34	1	8%	-22	.
COc1cc2c(cc1OC)CN(C(=O)c1ccc3nc[nH]c3c1)CC2	.	-4	-1%	-2	1.4
CCOC(=O)C1(CCCc2ccccc2)CCN(C2CCCC2)CC1	.	-2	-5%	5	1.9
COc1ccc(/C=N/n2c(SC)nnc2-c2ccccc2)c(OC)c1OC	-26	.	-2%	12	.
NC(=O)c1cc(NC(=O)c2cc(Br)c(Br)s2)cc(C(N)=O)c1	.	8	3%	4	-1.2
CC(C)=CCC/C(C)=C/Cc1c(O)ccc(C(=O)/C=C/c2ccc(O)cc2)c1O	-21	3	51%	-40	44*
O=C(Nc1ccc(N2CCN(Cc3ccccc3F)CC2)cc1)c1ccc([N+](=O)[O-])o1	.	100	.	.	3.4
CCCCCCSc1nc(O)c(C2OC(=O)c3c2ccc(OC)c3OC)c(=O)n1CC (stereo unspecified)	-15	4	-13%	22	6.2

Looked up by compound from above:
SMILES	YopH PTP inh	Mtb betalactam	Mtb growth	Arbovirus inh	RecA intein inh
CCCCCCSc1nc(O)c(C2OC(=O)c3c2ccc(OC)c3OC)c(=O)n1CC (stereo unspecified)	-15	4	-13%	22	6.2
CCOc1cc(/C=C2/C(=O)N(c3ccccc3)N=C2C)ccc1OC(=O)c1cccs1	-33	67	12%	2	-11

Molecules shown so far that contain a CF3 group, in the order listed:
SMILES	YopH PTP inh	Mtb betalactam	Mtb growth	Arbovirus inh	RecA intein inh
O=C(Cn1nnc(-c2cccc(C(F)(F)F)c2)n1)N1CCCCCC1	-18	2	.	-6	3.1
CC1CCc2[nH]c3ccc(C(=O)N(C)CC(=O)Nc4ccccc4C(F)(F)F)cc3c2C1 (stereo unspecified)	.	8	.	.	-4.0

(further entries)
SMILES	YopH PTP inh	Mtb betalactam	Mtb growth	Arbovirus inh	RecA intein inh
CCOC(=O)c1cncc(NC(=O)c2ccccc2)c1	-19	-11	7%	0	6.9
O=C1NC(=O)C(=Cc2ccc(OCCOc3ccc([N+](=O)[O-])cc3)cc2)C(=O)N1	.	12	5%	11	12
CCOc1ccccc1CN1CCN(S(=O)(=O)CC)CC1	-21	-5	-5%	12	-1.7
c1ccc(-c2csc(Nc3cccnc3)n2)cc1	.	-2	-6%	-1	1.7
CC1(CCc2ccccc2)NC(=O)N(Cc2cc([N+](=O)[O-])cc3c2OCOC3)C1=O (stereo unspecified)	.	1	2%	1	1.3
COC(=O)c1ccc(C(=O)N(Cc2ccccc2)c2ccccc2)cc1	.	-6	.	.	8.2
O=[N+]([O-])c1ccc(-c2nnc3n2CCCCC3)cc1	.	?	.	.	-0.4
CCOC(=O)N1CCN(c2nc3ccccn3c(=O)c2C=O)CC1	.	?	.	.	1.7
N#CC1=C(N)Oc2c(c(=O)oc3ccccc23)C1c1ccc([N+](=O)[O-])o1 (stereo unspecified)	.	2	2%	1	-7.6
COc1cc(/C=N/Nc2ccc(C(=O)O)cc2)ccc1O	.	0	5%	3	-5.3
O=C(NCc1ccccc1)C1=C[C@@H](C2CCCCC2)C[C@@H](OCCCCO)O1	.	2	-3%	.	2.5
N#Cc1cccc(C(c2nnnn2CCc2ccccc2)N2CCN(C3CCCCC3)CC2)c1 (stereo unspecified)	-44	-4	-6%	-4	0.4
O=C(CSC1=N/C(=C/c2ccco2)C(=O)N1c1ccc(OC(F)F)cc1)NC1CCS(=O)(=O)C1 (stereo unspecified)	.	5	3%	13	27
Cc1sc2nc(C(C)C)nc(SCC(=O)N3c4ccccc4CC3C)c2c1C (stereo unspecified)	2	-2	7%	5	-2.8
COc1ccccc1C1(O)CC2CCC(C1)N2S(=O)(=O)c1ccc(C(C)=O)cc1 (stereo unspecified)	-44	-1	2%	0	3.0
CCN(CC)c1ccc(/C=N/NC(=O)C(O)(c2ccccc2)c2ccccc2)o1	-26	5	0%	-8	5.0
CCSc1nnc(NC(=O)CSc2nncc(=O)n2N)s1	.	-10	1%	-1	7.2
O=C(CN1CCN(C(=O)c2ccco2)CC1)Nc1ccc(Br)cc1	.	-1	.	.	1.7
COC(=O)c1ccc(/C=N/OCC(=O)NCCc2ccc(OC)c(OC)c2)cc1	.	-3	3%	8	0.9
O=C(CCCc1nc(-c2ccc(Cl)cc2)no1)NC1CCCCC1	.	61	.	.	-1.9
O=C(O)c1cccc(NC(=S)N/N=C/c2c[nH]c3ccccc23)c1	.	-7	-5%	0	-7.5
COc1ccccc1Cc1nc(-c2ccc(C)cc2)no1	-12	-1	2%	1	8.8
O=C(NCCC(=O)N1CCCC1)c1ccccc1Cl	.	-2	.	.	-1.7
Cc1ccc(C(=O)Cn2cnc3ccccc3c2=O)cc1	3	-2	-7%	-8	0.0
CC(=O)C1CCN(Cc2ccccc2)CC1	1	1	-4%	5	-1.5
O=C(C#Cc1ccccc1)c1ccco1	.	100	.	.	0.7
CCOC(=O)c1ccccc1NC(=O)COC(=O)C(CC(C)C)NC(N)=O (stereo unspecified)	.	1	4%	22	-1.4
COc1ccc(NC(=O)c2ccccc2NC(=O)CSc2ccc(C)cc2)cc1	-35	4	9%	-12	-2.4
CC(C)C(OC(=O)c1cc2c(s1)CCCCC2)C(=O)NC(N)=O (stereo unspecified)	-17	30	.	4	-0.1
Cn1c(=O)n(CCc2ccccc2)c(=O)c2c1nc1n2CCCN1CCc1ccccc1	-44	40	15%	-24	2.7
CN(C)NC(=S)Nc1cccc(Cl)c1	.	99	-16%	.	0.6
Cc1cccc(CSc2ccc3nnc(-c4ccccn4)n3n2)c1	.	6	10%	1	3.6
O=C1OCc2ccc(NC(=O)C3CC3)cc21	.	0	-7%	2	-1.0
Cc1cccc(C(=O)NNC2=C(C(=O)C(F)(F)F)CCC2)c1O	-3	94	37%	-22	12
CN(C)S(=O)(=O)c1cc(NC(=O)COC(=O)/C=C/c2ccco2)ccc1Cl	.	-2	1%	.	5.7
O=C(c1ccccc1)c1ccc(O)cc1O	.	0	5%	-1	-11
Cc1cc(NCc2ccccc2)n2ncc(-c3ccccc3)c2n1	.	57	.	.	6.2
CC1CC(NC(=O)/C=C/C(=O)O)CC(C)(C)C1 (stereo unspecified)	.	-2	.	.	0.0
O=C(O)c1ccc(N/C(=N\S(=O)(=O)c2ccc(Cl)cc2)c2ccccc2)cc1	.	-7	-3%	.	-3.2
CCOC(=O)c1ccc(CSc2nnc(-c3ccncc3)n2N)cc1	-20	4	-1%	1	-0.3
CCCCCC(=O)N/N=C/c1cccs1	-11	3	4%	-2	-0.3
Cc1ccccc1OCC(=O)NC(=S)Nc1ccccc1N1CCN(S(C)(=O)=O)CC1	.	-1	.	.	11
CCOc1ccc(/C=N/NC(=O)c2c(-c3ccccc3)noc2C)cc1	-24	-1	-3%	-14	4.3
Cc1c(OCc2ccc([N+](=O)[O-])cc2)ccc2c3c(c(=O)oc12)CCC3	-12	15	-4%	-2	-2.7
O=C(CCS(=O)(=O)c1ccccc1)Nc1ccc(-c2nc3ccccc3s2)cc1	-32	-2	7%	-12	3.3
O=C(Oc1ccc(Oc2ccccc2)cc1)N1CCC(O)CC1	.	5	.	.	-0.6
CCCCCNCc1ccc(Br)cc1	-26	-4	2%	10	1.1
Cc1cc(NC(=O)c2ccc(F)cc2)n(CCOC(=O)c2ccc(F)cc2)n1	-20	5	-1%	13	1.6
Cc1ccccc1CN1C[C@@H]2C[C@@H](c3cn[nH]c3-c3ccc(F)cc3)N3CCC[C@@]23C1=O	.	-2	10%	-12	3.4
Cc1onc(-c2c(F)cccc2Cl)c1C(=O)N=C(N)N1CC(C)OC(C)C1 (stereo unspecified)	.	-13	-6%	.	0.3
O=C(N/N=C/c1ccc(Sc2nc3ccccc3s2)c([N+](=O)[O-])c1)c1ccccn1	-22	5	2%	6	1.0

Screens: PubChem, several laboratories

These rows are one share of the data (hit frequency here may not be typical).
